# Bioassay records deposited in PubChem by National Center for Advancing Translational Sciences (NCATS).
# Cruzain inh noDet: cruzain (T. cruzi) inhibition without detergent. P25779. purified cruzain, Z-FR-AMC fluorescence, no detergent. Potency, µM, without a hit: max response, negative = inhibition, actives largely listed as inhibitors. hit rate 2.3% among 200,000. AID 1476;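 note: plate controls were enzyme without inhibitor for no effect and buffer without enzyme for full effect; nearly all actives have a fitted effect of over 40% in size; top concentration of the series not given in the record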
# Target sequence (P25779 123-467 limits assumed): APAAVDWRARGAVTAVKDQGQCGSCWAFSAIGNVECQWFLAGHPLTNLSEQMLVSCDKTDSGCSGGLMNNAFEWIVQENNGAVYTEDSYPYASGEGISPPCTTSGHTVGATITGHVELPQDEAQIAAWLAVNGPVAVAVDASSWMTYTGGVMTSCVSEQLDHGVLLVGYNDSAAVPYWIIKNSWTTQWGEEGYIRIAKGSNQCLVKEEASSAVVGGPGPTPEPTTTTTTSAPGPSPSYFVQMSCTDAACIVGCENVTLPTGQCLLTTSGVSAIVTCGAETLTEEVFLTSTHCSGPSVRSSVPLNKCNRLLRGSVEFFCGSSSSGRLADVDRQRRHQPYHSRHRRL
#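 Purified cruzain at 1.5 nM, pre-incubated 15 min with compound at room temperature in 100 mM sodium acetate pH 5.5, 5 mM DTT, 0.00005% Triton X-100. Reaction started with 2 uM Z-FR-AMC; AMC fluorescence increase over 60 s gives rate.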
# NS1 inh: blocks influenza NS1 protein function; S. cerevisiae slowed by influenza A NS1, growth recovery by OD600; Potency, µM (top dose mostly 46.1 µM), for the others: at the top dose activity, positive = more growth; hit rate 0.4% among 270,000; AID 2326; active means well fitted rising curve with a large enough effect; inconclusive means small, poorly fitted or top-dose-only effect; inactive means no such curve, though single readings can be large or run the other way; note: nearly all actives have a fitted effect of over 50% in size
#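 Recovery from NS1-induced slow growth read by OD600 in budding yeast switched to galactose assay medium (pH 6.0, -URA) at 1:100 dilution. Compound 23 nl per well; the matching strain lacking NS1 serves as control.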
# 2A StopGo: FMDV 2A StopGo reporter, luciferase signal; human cells with a luciferase reporter of 2A StopGo recoding; control for the full effect not named in the record; hit rate 1.2% among 410,000; AID 1159524; Potency, µM (top dose mostly 57.9 µM), inactives show at the top dose signal change, negative = less light; active = well fitted falling curve with a large enough effect; inconclusive = small, poorly fitted or top-dose-only effect; inactive = no such curve, though single readings can be large or run the other way; tested in HEK293T cells; note: % is set by controls: 0 for no effect and ±100 for the full control effect; nearly all actives have a fitted effect of over 45% in size; luciferase light after 4 h
# RE007 growth inh: less growth of the S. pombe RE007 Vpr strain. S. pombe RE007 Vpr strain, BacTiter-Glo ATP luminescence, 24 h; control for the full effect not named in the record. Potency, µM (highest dose often 92.2 µM), for the others: at the top dose activity change, negative = less growth. hit rate 0.21% among 360,000; active = well fitted falling curve with a large enough effect; inconclusive = small, poorly fitted or top-dose-only effect; inactive = no such curve, though single readings can be large or run the other way;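 note: % is set by controls: 0 for no effect and ±100 for the full control effect; nearly all actives have a fitted effect of over 50% in size; the assay follows cell death caused by Vpr and the record does not say whether a fall means rescue or toxicity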
#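 Fission yeast RE007 carrying one integrated HIV-1 vpr copy, seeded at OD 0.01 in PMG+AL medium with 23 nL pinned compound. Grown 24 h at 30 degrees; viability read by BacTiter-Glo luminescence after 5 min.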
# Lassa entry inh: Lassa virus entry inhibition; Lassa virus pseudotype entry inhibition, cell reporter; control for the full effect not named in the record; Potency, µM (series often up to 37.9 µM), for inactives: top-dose activity change, negative = inhibition, actives largely listed as inhibitors; hit rate 1.2% among 300,000; AID 540256; active means well fitted inhibition curve with a large enough effect; inconclusive means small, poorly fitted or top-dose-only effect, or effect the other way; inactive means flat fitted curve, though single readings scatter; tested in HEK293 cells; note: % is set by controls: 0 for no effect and ±100 for the full control effect; nearly all actives have a fitted effect of over 50% in size; luciferase read-out
# SARS PLpro yeast: blocks SARS-CoV papain-like protease in a yeast assay; S. cerevisiae expressing SARS-CoV PLpro, growth rescue; control for the full effect not named in the record; Potency, µM (highest dose often 32.9 µM), without a hit: at the top dose activity, positive = growth rescue; hit rate 0.19% among 330,000; AID 485353; active means well fitted rising curve with a large enough effect; inconclusive means small, poorly fitted or top-dose-only effect; inactive means no such curve, though single readings can be large or run the other way; note: 0% is about no effect; nearly all actives have a fitted effect of over 55% in size; growth read by luminescence after 48 h
# Cruzain Triton: blocks cruzain activity in presence of Triton detergent. purified cruzain, Z-FR-AMC fluorescence, 0.01% Triton. hit rate 0.43% among 200,000. P25779. Potency, µM, inactives show max response, negative = inhibition, actives largely listed as inhibitors;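 note: plate controls were neutral wells for no effect and buffer without enzyme for full effect; nearly all actives have a fitted effect of over 40% in size; top concentration of the series not given in the record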
#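 Steps: dispense cruzain (1.5 nM final) in acetate buffer pH 5.5 with DTT and 0.01% Triton X-100; pin-transfer compounds; incubate 15 min RT; add Z-FR-AMC (2 uM final); read fluorescence every 30 s, using the 60 s intensity change.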
# MARV entry inh: inhibitors of Marburg virus binding or cell entry | hit rate 1.8% among 300,000 | Marburg virus pseudotyped entry inhibition, cell reporter; control for the full effect not named in the record; about a third of the inactives were read at about 46 µM | AID 540276 | Potency, µM (series often up to 37.8 µM), inactives show at the top dose activity change, negative = inhibition, hits mostly inhibitors; active = well fitted inhibition curve with a large enough effect; inconclusive = small, poorly fitted or top-dose-only effect, or effect the other way; inactive = flat fitted curve, though single readings scatter; tested in HEK293 cells; about a fifth of its hits are not listed in these tables; note: % is set by controls: 0 for no effect and ±100 for the full control effect; luciferase read-out
# * marks the source's active call; other numbers are inactive results; ? = inconclusive; / = no result given; & = joins results of further samples; [ ] = dose if it differs, or a comment. Unless noted, calls come from the whole dose curve; as a rule, active = well fitted curve in the direction sought with a large enough effect; inconclusive = small, poorly fitted or top-dose-only effect, or another doubt; inactive = no such curve, though single readings can be large; an effect the other way counts as inactive or inconclusive. Potency is the fitted concentration of half-maximal effect.
SMILES,Cruzain inh noDet,NS1 inh,2A StopGo,RE007 growth inh,Lassa entry inh,SARS PLpro yeast,Cruzain Triton,MARV entry inh
CCC(=O)NCc1cc(-c2nn(C)c(=O)c3ccccc23)ccc1OC,-5.1%,0.2%,-14.8%&-11.0%,-4.4%,-6.8%&2.0%[46.1 µM],-0.9%,-0.7%,-16.0%&5.2%[46.1 µM]
COc1ccc(/C=N/OC/C(O)=C(\C#N)c2nc3ccccc3[nH]2)cc1,-29.0%,9.3%,18.5%,12.2%,-26.6%,-2.4%,1.6%,?
COc1ccccc1/C=C/C(=O)OCC(=O)NC1CCCCCC1,/,/,0.4%,-9.3%,3.7%,-0.2%,/,5.2%
COc1cc2c(C(=O)NCc3ccc(C)o3)cn(CC(C)C)c(=O)c2cc1OC,?,8.6%,-13.4%,3.9%,-4.7%,-11.7%,1.4%,?
Cc1cc2c(Nc3ccc(C(=O)O)cc3)ncnc2s1,/,10.8%,0.6%,-5.5%,/,-0.7%,/,/
COc1ccc(C(=O)N2CCCCCC2)cc1OC1CCN(C(C)=O)CC1,/,0.2%,-7.5%,19.5%,0.1%,-1.1%,/,6.7%
N#Cc1ccc(-c2ccc(OCC(=O)NCCCN3CCCC3=O)cc2)cc1,/,/,16.6%,?,-13.9%,-12.9%,/,14.1%
CCCCC(Sc1nc(C)c(Cc2ccccc2)c(=O)[nH]1)C(=O)O (stereo unspecified),/,?,8.3%,-8.7%,/,2.5%,/,/
CSc1nc2c(C)c(C)c(C)c(C)c2[nH]1,/,-5.8%,-22.0%,6.7%,17.0%,-1.9%,/,?
Cc1cccc(-c2nc(N3CCN(c4ccc(F)cc4)CC3)c3ccccc3n2)c1,3.9%,/,0.0%,/,-13.7%[46.1 µM],/,0.0%,/
Cc1cc(C)n(-c2ccc(C(=O)Nc3cccnc3Cl)cc2)n1,/,-5.4%,4.2%,12.8%,/,1.3%,/,/
Nc1nc(Cl)cc(-c2ccccc2)n1,/,2.5%,-2.7%,10.6%,-2.6%,0.3%,/,?
CCC1CCCCN1C(=O)CCNS(=O)(=O)c1ccc2c(c1)oc(=O)n2C (stereo unspecified),/,-12.1%,1.2%,0.7%,/,-1.9%,/,/
S=C(NCc1ccco1)Nc1ccc(Oc2ccccc2)cc1,/,-3.0%,26.5%,9.6%,/,-2.8%,/,/
CC1(c2ccccc2)NC(=O)N(CC(=O)N2CCN(S(=O)(=O)c3cccs3)CC2)C1=O (stereo unspecified),/,/,-14.9%,-6.5%,-1.1%,3.7%,/,19.1%
CCCc1cc(=O)[nH]c(SCC(=O)NC(=O)OCC)n1,1.2%,6.1%,11.0%,-0.5%,23.7%,8.0%,2.9%,10.7%
O=C(O)c1ccccc1/C=N/n1c(C2CCCCC2)n[nH]c1=S,/,4.0%,-12.2%,0.8%,19.4%,1.4%,/,?
CC(=O)c1nn(-c2ccc(OC(F)(F)F)cc2)nc1Nc1ccc(C)cc1,-8.8%,/,1.9%,/,-10.0%[46.1 µM],/,0.5%,5.1%[46.1 µM]
Cc1sc2ncn(CC(=O)Nc3cccc(S(N)(=O)=O)c3)c(=O)c2c1-c1ccccc1,/,13.9%,-14.6%,-3.3%,/,0.3%,/,/
O=S(=O)(c1ccccc1)C1CC1(c1ccccc1)c1ccccc1 (stereo unspecified),/,/,-28.1%,-6.4%,-9.7%,/,/,-1.0%
CC(C)NC(=O)NC(=O)CSc1ccc(S(=O)(=O)N2CCOCC2)cn1,/,/,0.0%,8.1%,?,2.3%,/,-8.6%
Cc1ccc(S(=O)(=O)CCC(=O)Nc2nccs2)cc1,-1.9%,-6.3%,-8.7%,11.0%,4.1%,3.0%,-4.9%,6.9%
OC(c1cc(C(F)(F)F)nc2c(C(F)(F)F)cccc12)C1CCCCN1 (stereo unspecified),-4.3%,/,?,-0.6%[18.4 µM],/,/,0.8%,/
O=C(C1COc2ccccc2O1)N1CCOCC1 (stereo unspecified),-17.5%,11.3%,-13.7%,8.8%,11.1%,-4.5%,3.2%,9.6%
CC(C)CNC(=S)NNC(=O)c1nn(C)cc1Cl,-0.5%,13.6%,16.5%,16.8%,-1.3%,-13.4%,1.8%,4.4%[46.1 µM]
Cn1ncc2c(N3CCN(c4ccccc4Cl)CC3)ncnc21,12.4%,/,-19.8%,/,4.4%[46.1 µM],/,1.0%,/
O=C(NCc1ccccc1)C(c1c(F)cccc1Cl)N(C(=O)c1csnn1)C1CC1 (stereo unspecified),/,-5.6%,8.2%,-7.8%,-9.6%,-14.8%,/,-1.8%[46.1 µM]
COc1ccc(N2CCN(C3CCCN(C(=O)C4=C(C)OCCO4)C3)CC2)cc1 (stereo unspecified),/,4.7%,0.0%,-5.8%,16.3%,?,/,1.7%
COCCNC(=O)Cn1nc(-c2ccccc2OC)ccc1=O,-6.7%,2.9%,5.8%,10.5%,1.8%,-1.7%,-2.5%,12.6%
CC(=O)N1c2ccccc2C(=O)C1N1CCN(c2ccccc2F)CC1 (stereo unspecified),-1.7%,/,7.7%,/,-2.6%[46.1 µM],/,-2.7%,/
O=C(Nc1cccc2c1CCCC2)N1CCOc2ccc(Cl)cc21,9.6%,/,-15.8%,/,9.6%[46.1 µM],/,-5.1%,/
CC(=O)c1ccc(NC(=O)c2ccc3nc(-c4ccco4)c(-c4ccco4)nc3c2)cc1,?,5.3%,?,-3.6%,-22.5%,-1.1%,14.1µM*,?
CCn1cc(C(=O)OCc2ccc(F)cc2)c(=O)c2ccc(C)nc21,-8.9%,-42.2%,-16.4%,-0.9%,-3.9%,-6.3%,-2.0%,-0.2%
c1ccc(-c2noc(-c3cccnc3NCc3ccco3)n2)cc1,6.7%,/,13.5%,/,-11.6%[46.1 µM],/,-23.0%,-1.4%[46.1 µM]
COC(=O)CCCC1=CC2=CC(=O)C(C)(OC(=O)c3cccs3)C(=O)C2=CN1c1ccc(OC)cc1 (stereo unspecified),/,3.7%,-16.1%,16.3%,/,0.0%,/,?
COc1ccc(CNc2nc3c(c(C(F)(F)F)n2)CCCCC3)cc1,-5.4%,-62.7%,/,/,/,-17.6%,-6.9%,-6.1%

# Entries above that have an NH in an aromatic ring, in the order listed:
SMILES,Cruzain inh noDet,NS1 inh,2A StopGo,RE007 growth inh,Lassa entry inh,SARS PLpro yeast,Cruzain Triton,MARV entry inh
COc1ccc(/C=N/OC/C(O)=C(\C#N)c2nc3ccccc3[nH]2)cc1,-29.0%,9.3%,18.5%,12.2%,-26.6%,-2.4%,1.6%,?
CCCCC(Sc1nc(C)c(Cc2ccccc2)c(=O)[nH]1)C(=O)O (stereo unspecified),/,?,8.3%,-8.7%,/,2.5%,/,/
CSc1nc2c(C)c(C)c(C)c(C)c2[nH]1,/,-5.8%,-22.0%,6.7%,17.0%,-1.9%,/,?
CCCc1cc(=O)[nH]c(SCC(=O)NC(=O)OCC)n1,1.2%,6.1%,11.0%,-0.5%,23.7%,8.0%,2.9%,10.7%
O=C(O)c1ccccc1/C=N/n1c(C2CCCCC2)n[nH]c1=S,/,4.0%,-12.2%,0.8%,19.4%,1.4%,/,?

# (list continues)
SMILES,Cruzain inh noDet,NS1 inh,2A StopGo,RE007 growth inh,Lassa entry inh,SARS PLpro yeast,Cruzain Triton,MARV entry inh
CCCN(C(=O)c1ccc(OCC(C)C)cc1)c1c(N)n(Cc2ccccc2)c(=O)[nH]c1=O,/,/,2.2%,7.7%,-14.4%,-2.7%,/,1.6%
CCN(CC)CCOC(=O)c1ccc(NC(=O)C2(c3ccccc3)CCCC2)cc1,-4.6%,3.5%,-16.5%,-16.0%,2.1%,?,-1.4%,-2.1%
COc1cc(OC)cc(C(=O)N[C@H](C(=O)OCC(N)=O)C(C)C)c1,0.2%,5.8%,-17.9%,6.8%,0.4%,-10.6%,-7.0%,3.4%
COc1ccc(C(=O)Nc2cccc3c2C(=O)NC3=O)cc1S(=O)(=O)N1CCOCC1,-14.4%,3.1%,-14.7%,-4.1%,-4.2%,1.0%,0.7%,?
CNc1nc(-c2ccccc2)cc(C)c1S(C)(=O)=O,/,-1.3%,27.6%,-16.5%,18.5%[46.1 µM],-1.0%,/,-14.7%[46.1 µM]
O=C(Nc1nnc(SCc2ccccn2)s1)C1CC(=O)N(c2ccccc2)C1 (stereo unspecified),0.4%,-0.2%,-15.3%,14.5%,20.3%,8.6%,-4.4%,0.1%
CCn1c(SCC(=O)NCc2cccs2)nc2c1c(=O)n(C)c(=O)n2C,2.8%,1.4%,-13.6%,-15.4%,-2.3%,0.0%,0.2%,6.2%
CSc1cccc(NC(=O)CSc2nc3ccccc3o2)c1,0.8%,-59.0%,/,-16.2%,-1.7%,-3.5%,-10.4%,18.5%
COc1cccc(CNC(=O)c2cccc(NC3=NC4CS(=O)(=O)CC4S3)c2)c1 (stereo unspecified),/,-6.8%,-0.1%,2.1%,/,3.6%,/,/
N=C1C(c2ccccc2)=C(O)CN1CCCO,/,/,-22.4%,21.5%,-4.7%,3.4%,/,18.9%
COc1cc(NC(=O)c2sc3nc(C)nc(N4CCOCC4)c3c2C)cc(OC)c1OC,/,-5.0%,-14.9%,-14.3%,/,-5.8%,/,/
CCOc1ccc(C2=Nn3c(nnc3-c3ccccn3)SC2)cc1,-8.1%,-60.0%,-16.1%,3.8%,-5.4%,-2.1%,-2.5%,-7.4%
CCc1sc(C(=O)N2CCC3(CC2)OCCO3)cc1Br,-0.5%,0.8%,-1.8%,-6.2%,-4.3%,-5.3%,-1.1%,-2.5%
O=C(C1CCCO1)N(c1ccc(F)cc1)C1C=CS(=O)(=O)C1 (stereo unspecified),/,/,2.6%,6.8%,-5.7%,2.6%,/,2.1%[46.1 µM]
CCN(CC)CCN1C(=O)Cn2c(C)c(C)c3cccc1c32,1.4%,-0.7%&7.1%,-26.2%&-6.8%,-10.0%&-2.6%,?,-2.3%&7.1%,-1.5%,?
COc1ccccc1CNC(=O)Cc1c(C)c2c(cc(C)c3c(C)coc32)oc1=O,-5.6%,/,1.9%,/,20.0%[46.1 µM],/,2.2%,-0.2%[46.1 µM]
